Bioassay records deposited in PubChem by National Center for Advancing Translational Sciences (NCATS).
StopGo RLuc: FMDV 2A StopGo reporter, Renilla signal; HEK cells with a luciferase reporter of 2A StopGo recoding; Potency, µM (highest dose often 57.5 µM), without a hit: top-dose signal change, negative = less light; 120,000 compounds, 0.32% hits; active means well fitted falling curve with a large enough effect; inconclusive means small, poorly fitted or top-dose-only effect; inactive means no such curve, though single readings can be large or run the other way; also: nearly all actives have a fitted effect of over 55% in size; overnight with compound
2A firefly: FMDV 2A StopGo reporter, firefly signal. HEK cells with a luciferase reporter of 2A StopGo recoding. Potency, µM (top dose mostly 57.5 µM), without a hit: top-dose signal change, negative = less light. 120,000 compounds, 0.23% hits. AID 1745856; active = well fitted falling curve with a large enough effect; inconclusive = small, poorly fitted or top-dose-only effect; inactive = no such curve, though single readings can be large or run the other way; also: nearly all actives have a fitted effect of over 60% in size; overnight with compound
Active calls of the source: *; u = inconclusive; [ ] = remark or other dose. % is scaled to controls: 0 for no effect and ±100 for the full control effect; potency is read from the fitted curve at half-maximal effect. An excerpt; rates above refer to the full screens.

Value order – StopGo RLuc, 2A firefly
CC(C)n1c(NC2CCCCC2)nc2c1c(=O)n(C)c(=O)n2C
→ 0%, -7%
Cc1ccc(C(C)(C)C)cc1CC(=O)O
→ 5%, 7%
Cn1nnnc1SCCCNCc1cc(Cl)ccc1OCc1ccccc1F
→ -9%, -18%
O=C(NCCO)c1ccc(-c2nnc(Nc3ccc(OC(F)(F)Cl)cc3)c3ccccc23)cc1
→ u, -19%
CCc1cccc(N2C(=O)N(CC(=O)NCc3ccc(OC)cc3)c3ccccc3S2(=O)=O)c1
→ -9%, -8%
COc1ccccc1N1CCN(C(=O)CCn2nc(C)c(S(=O)(=O)N3CCCC3)c2C)CC1
→ -2%, -13%
FC(F)(F)C(Oc1nc(N2CCOCC2)nc(N2CCOCC2)n1)C(F)(F)F
→ 34%[activator], 46%[activator]
Cc1ccc(S(=O)(=O)Nc2ccc(S(=O)(=O)Nc3ccccc3)cc2[N+](=O)[O-])cc1
→ 283%[activator], 0%
Cc1cc(C)c(NC(=O)c2cc(S(=O)(=O)N3CCCC3)cn2C)c(C)c1
→ 4%, -18%
OC(CNCc1ccc(-c2ccccc2)o1)c1ccccc1 (stereo not given)
→ 4%, 25%
O=C(O)CNC(=O)Cn1ccc2ccc(OCc3ccccc3)cc21
→ 8%, 16%
COc1cc(NC(=O)Cn2cc(S(=O)(=O)c3ccccc3)c(=O)c3ccc(C)nc32)cc(OC)c1
→ 28%, 6%
CN(C(=O)CN1CCC(c2cc3ccccc3[nH]2)CC1)C1CC1
→ -2%, -1%
O=C(O)C12CC3CCC(CC(C3)C1)C2
→ 4%, 0%
O=C(Cn1c(=O)n(Cc2nc(-c3ccccc3)no2)c(=O)c2cc3c(cc21)OCO3)Nc1ccccc1
→ -2%, -8%
CN(CC(=O)NC(=O)NCc1ccccc1)Cc1cccc(Cl)c1Cl
→ 8%, 0%
Cc1ccc(-c2noc(CCCC(=O)NCc3ccco3)n2)cc1
→ -12%, u
Cc1ccc(S(=O)(=O)c2nc(-c3cccc(C)c3)oc2N2CCN(c3ccccc3)CC2)cc1
→ -20%, 2%
CC(C)Cn1c(-c2cccc(Br)c2)nc2ccccc21
→ -22%, -12%
Cc1cc2oc(C(=O)NCCc3nc(-c4ccccc4)no3)cc(=O)c2cc1C
→ -11%, -13%
CCNC(=O)c1nn(-c2ccccc2C)nc1CO
→ -12%, -8%
COc1cn(CC(=O)Nc2cc(C)ccc2C)c(CN2CCCCC2)cc1=O
→ -12%, -11%
CC1CCCN(c2nc3c(-c4ccc(Cl)cc4)nnn3c3ccccc23)C1 (stereo not given)
→ -6%, -10%
CC(C)(C)OC(=O)N1CCC(c2c(C(=O)N3CCc4ccccc4C3)cnn2-c2ccc(F)cc2)CC1
→ -8%, -18%
COc1cccc(CNC(=O)c2c(C)nn(-c3ccc(F)cc3)c2-n2cccc2)c1
→ 5%, -4%
CC(NCC(C#N)CCC#N)c1cccc(Br)c1 (stereo not given)
→ -10%, -3%
Cc1ccc(-c2nc3cc(C)c(C)cc3nc2-c2ccc(C)cc2)cc1
→ 1%, 6%
COc1cc(CN2CCCCC2C)ccc1OC(F)F (stereo not given)
→ 3%, 13%
O=C(COc1ncnc2sc3c(c12)CCCC3)Nc1ccc2c(c1)OCCO2
→ -11%, 3%
CCCCNC(=O)C(C#N)c1nc2ccccc2nc1N1CCN(c2ccc(F)cc2)CC1 (stereo not given)
→ -3%, 1%
CCOc1ccc(NC(=O)Cn2cc(C(=O)c3ccc(C)c(C)c3)c(=O)c3cc4c(cc32)OCCO4)cc1
→ -21%, -19%
Cc1cc(C)cc(NC(=O)CCCn2cnc3c2c(=O)n(C)c(=O)n3C)c1
→ -13%, -12%
CC(=O)OCC(=O)Nc1cc(C#N)cc(NC(=O)COC(C)=O)c1Cl
→ -8%, -14%
CCOC(=O)c1ccc(NC(=O)CSC2=Nc3ccccc3N=C(c3cccc(OC)c3)C2)cc1
→ -5%, 27%
CCOc1cccc2sc(=NC(=O)c3ccc(S(=O)(=O)N4CCOCC4)cc3)n(C)c12
→ 4%, 11%
Cc1ccc(-c2ocnc2C(=O)Nc2ccc(Cl)cc2C)o1
→ -1%, 8%
COc1ccc(-c2cccc(NS(=O)(=O)c3cc(C)ccc3OC)c2)nn1
→ 237%[activator], 9%
COc1ccc(OC)c(NC(=O)CSc2nc(=O)n(CCN(C)C)c3c2CCC3)c1
→ -10%, -19%
O=C(O)/C(=C\c1ccc(OCc2ccccc2)cc1)NC(=O)c1ccccc1
→ 6%, 0%
Cc1oc(-c2cccs2)nc1CN(CC(N)=O)C(C)C
→ -10%, 6%
O=C(C1=C(c2ccccc2)SCCO1)N(Cc1ccco1)C1CCS(=O)(=O)C1 (stereo not given)
→ 5%, 4%
CCOc1ccc(Nc2nc3ccccc3nc2NS(=O)(=O)c2ccc(NC(C)=O)cc2)cc1
→ 128%[activator], 87%[activator]
CCOc1ccc(-c2nc(Cn3nnc(C(=O)Nc4ccccc4F)c3N)c(C)o2)cc1
→ 3%, 20%
Cc1cc(C)n(-c2nnc(Nc3ccc(C)c(Cl)c3)c3ccccc23)n1
→ -6%, -4%
Cc1cn2c(=O)cc(COc3ccccc3NC(=O)c3ccco3)nc2s1
→ -13%, -18%
CC(NC(=O)CSc1nc(CN2CCOCC2)nc2ccccc12)c1cccc2ccccc12 (stereo not given)
→ -2%, 0%
CC(=O)N1CCc2cc(Br)cc(S(=O)(=O)N3CCN(c4cc(C)ccc4C)CC3)c21
→ -7%, -18%
COc1ncccc1CNC(=O)c1cnn(-c2ccc(F)cc2)c1-n1cccc1
→ 1%, -9%
Cc1ccc2nc(C)cc(C(=O)NC(C)(C)C)c2c1
→ 1%, 9%
N#C/C(=C\c1c[nH]c2ccccc12)C(=O)NC1CCCCC1
→ 8%, 156%[activator]
CS(=O)(=O)NCC(c1ccco1)N1CCN(c2ccc(F)cc2)CC1 (stereo not given)
→ 9%, -22%
O=C(c1ccc(Cl)cc1)n1nc(-c2ccco2)nc1NCc1cccs1
→ -2%, 47%[activator]
Cc1ccc(C2C(C#N)=C(N)OC3=C2C(=O)CC(C)(C)C3)cc1 (stereo not given)
→ -7%, -18%
COc1ccc(-c2cc(C(F)(F)F)nc(SCCC(=O)Nc3cccc(O)c3)n2)cc1
→ 21%, -4%
COC(=O)c1ccc(C(=O)NCC2CCC2)cc1
→ 6%, 0%
Cc1cccc(-c2noc(-c3ccc(NCc4ccccc4)c([N+](=O)[O-])c3)n2)c1
→ -10%, 18%
C=CCC(C)(C)NC(C)c1ccccc1 (stereo not given)
→ 9%, 7%
CC(=O)Nc1ccc(Nc2ncnc3sc4c(c23)CCCC4)cc1
→ 6%, 85%[activator]
CCOC(=O)c1ccc(N2CCN(C(C)=O)CC2)c(NC(=O)c2ccc(-c3ccccc3)cc2)c1
→ 40%[activator], 1%
COc1cc(NC(=O)COCc2cc(-c3ccc(F)cc3)on2)cc(OC)c1OC
→ u, u

More entries follow.
Value order – StopGo RLuc, 2A firefly
O=C(Nc1cccc(C(F)(F)F)c1)c1noc2c1CCc1ccccc1-2
→ -8%, 24%
CCNCc1ccc(-c2ccc(Br)cc2C)o1
→ -4%, 55%[activator]
O=S(=O)(c1ccc(SCc2cc(Cl)c3c(c2)OCCCO3)nc1)N1CCCC1
→ -19%, u
CC(C)OCc1ccc(CNC(=O)C2CCCCC2)cc1
→ 7%, 116%[activator]
COc1ccc(N2CCN(Cc3nnc(-c4ccc5c(c4)OCO5)o3)CC2)cc1
→ -8%, -19%
COCCCNc1nc2c(S(=O)(=O)c3ccccc3)nnn2c2ccc(Cl)cc12
→ 21%, -11%
Cc1oc2ccc(O)c(CN3CCCC3)c2c1C(=O)Nc1ccccc1
→ -13%, -15%
Cc1cccc(N2CCN(C(=O)CCc3c(C)nc4ncnn4c3C)CC2)c1C
→ -14%, -10%
Cc1cccc2c1NC(C)CC2C (stereo not given)
→ 6%, 2%
Cc1[nH]c2ccccc2c1C(=O)C(=O)NC1(C)CCS(=O)(=O)C1 (stereo not given)
→ -12%, -5%
Cc1c(C(=O)Cn2cnc3ccccc32)c2ccccc2n1C
→ -10%, -8%
CSc1ccccc1-c1nnc(NC(=O)c2ccc3c(c2)OCCO3)o1
→ -13%, 65%[activator]
CCCCCCCCC(=O)NCCC1=CCCCC1
→ 5%, 25%
CC(C)OCc1ccc(C(=O)Nc2cccc(OC(F)(F)F)c2)cc1
→ 7%[1.06 µM], u
COc1cc(NC(=O)Cc2nc(-c3ccccc3)oc2C)cc(OC)c1
→ -9%, -3%
CCOC(=O)c1c(NC(=O)COc2cccc(C)c2C)sc2c1CCC(CC)C2 (stereo not given)
→ -11%, -17%
N#Cc1ccccc1COC(=O)c1ccc(OC(F)F)cc1
→ -2%, 0%
CN(Cc1ccccc1)c1ccc2cc(S(=O)(=O)N3CCCCC3)ccc2n1
→ -6%, -8%
Cc1c(Cl)cccc1NC(=O)CSc1ncc2c(n1)-c1ccccc1N(C)S2(=O)=O
→ -16%, -19%
CC(C)c1ccc2oc(-c3cc(NC(=O)c4cccs4)ccc3Cl)nc2c1
→ 0%, 75%[activator]
Cc1nn(-c2nc(-c3ccc(F)cc3)cc(C(F)(F)F)n2)c(C)c1Br
→ -8%, 0%
CN(Cc1ccccc1)c1ccc(-c2nc(-c3ccco3)no2)cc1[N+](=O)[O-]
→ 8%, 131%[activator]
O=C(Cc1cccs1)NC1CC(=O)N(c2cccc(F)c2)C1 (stereo not given)
→ -2%, -4%
Cc1cc(C)n(-c2nc3ccccc3nc2Nc2cc(C(=O)O)ccc2C)n1
→ -10%, 2%
Cc1ccc(-c2cc(Nc3cccc(C)c3)nc(C)n2)cc1
→ -1%, 224%[activator]
Cc1nn(CCCC(=O)NCc2ccccc2)c(=O)c2c1sc1ccccc12
→ 2%, 0%
O=C(CSc1nnc(-c2ccc(O)cc2)o1)c1ccc(Br)cc1
→ 10%, -17%
COc1cc(CNCCc2ccccc2)cc(OC)c1
→ 11%, 102%[activator]
COc1ccccc1N1CCN(S(=O)(=O)c2c(C)sc3ncn(CC(=O)Nc4ccccc4F)c(=O)c23)CC1
→ 5%, -9%
Cn1ccc2c(OCC(=O)NCc3ccccc3)cccc2c1=O
→ 34%[activator], 89%[activator]
Cc1nn(CC(=O)NC(c2ccccc2)C2CC2)c(=O)c2ccccc12 (stereo not given)
→ 8%, -5%
CCc1ccc(C2C(C#N)=C(N)OC3=C2C(=O)CC(C)(C)C3)cc1 (stereo not given)
→ 22%, 0%
COc1ccc(NC(=O)C2CCN(c3nc4ccccc4nc3OC)CC2)c(OC)c1
→ 8%, 9%
COc1cc(/C=N/O)cc(Br)c1OCc1ccc(C(=O)O)cc1
→ 11%, -15%
Cc1cccc(N(C)C(=O)C(Cc2ccccc2)NS(=O)(=O)c2cccc3nsnc23)c1 (stereo not given)
→ 230%[activator], 2%
CCCCOc1ccc(C(=O)N2CCN(CCc3ccccn3)CC2)cc1
→ -14%, -11%
Cc1oc(-c2cccc(Cl)c2)nc1CN1CCN(C(=O)c2ccco2)CC1
→ u, -28%
COc1cccc(NC(=O)CSc2c3c(nc4ccccc24)CCCC3)c1
→ 19%, -4%
O=C(CCC(=O)N1CC2CCCN2c2ccccc21)NCc1ccccc1F (stereo not given)
→ -12%, -9%
CC(=O)c1cccc(-n2c(=O)c3c4c(sc3n(CC(=O)c3ccccc3)c2=O)CN(C(C)=O)CC4)c1
→ -11%, -14%
COc1cccc(/C=C/C(=O)Oc2ccc(C3SCCS3)cc2OC)c1
→ 4%, 21%
CC(C)Cn1nc(C(=O)N2CCCC2c2nc3ccccc3s2)c2ccccc2c1=O (stereo not given)
→ 5%, -2%
COc1cccc(-c2cn3c(n2)sc2cc(C(=O)NC4CCCCCC4)ccc23)c1
→ -4%, 75%[activator]
COc1cccc(-c2cc(C(=O)N3CCN(c4ncccn4)CC3)c3ccccc3n2)c1
→ 5%, 0%
COc1ccc2c(C)c(CCC(=O)NCCCO)c(=O)oc2c1
→ -4%, 9%
Cn1c(=O)c2c(ncn2CC(=O)N2CC(C(=O)N3CCCCC3)Oc3ccccc32)n(C)c1=O (stereo not given)
→ -5%, 0%
CC(C)NC(=O)c1ccc2c(c1)N(Cc1cccc(Cl)c1)C(=O)c1ccccc1S2=O (stereo not given)
→ 5%, -7%
Cc1cc(C(=O)N2CCN(c3ccccc3)CC2)c2ccccc2n1
→ 31%, 35%
COc1cc(C2CC(=O)Nc3nc(N4CCCCC4)sc32)cc(OC)c1OC (stereo not given)
→ 112%[activator], 125%[activator]
CCOC(=O)c1cc2c(=O)n3ccccc3nc2n(CC2CCCO2)c1=NC(=O)c1ccc(OCC)cc1 (stereo not given)
→ 42%[activator], 20%

In a second layout: entries from further up.
compound | StopGo RLuc | 2A firefly
CCOC(=O)c1cc2c(=O)n3ccccc3nc2n(CC2CCCO2)c1=NC(=O)c1ccc(OCC)cc1 (stereo not given) | 42%[activator] | 20%
CCc1ccc(C2C(C#N)=C(N)OC3=C2C(=O)CC(C)(C)C3)cc1 (stereo not given) | 22% | 0%
COc1cccc(-c2cn3c(n2)sc2cc(C(=O)NC4CCCCCC4)ccc23)c1 | -4% | 75%[activator]
CCCCOc1ccc(C(=O)N2CCN(CCc3ccccn3)CC2)cc1 | -14% | -11%
Cn1c(=O)c2c(ncn2CC(=O)N2CC(C(=O)N3CCCCC3)Oc3ccccc32)n(C)c1=O (stereo not given) | -5% | 0%
COc1cccc(-c2cc(C(=O)N3CCN(c4ncccn4)CC3)c3ccccc3n2)c1 | 5% | 0%
